Bioassay records from PubChem BioAssay.
MT1-MMP act inh: blockers of MT1-MMP proenzyme processing, primary screen, HT1080 RFP-PRO-GFP cells, GFP/RFP fluorescence. Matrix metalloproteinase-14 (Homo sapiens), P50281. GFP/RFP ratio fluorescence, overnight; percent of plate control window, DMSO zero. GFP/RFP ratio change, % at 20 µM. 360,000 compounds, 0.061% hits. AID 651647, 2012;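 active = GFP/RFP ratio change of at least 30% with cell ATP level not reduced by more than half and red fluorescence within 50% of control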; also: strong numbers were not always called active
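Test system: HT1080 RFP-PRO-GFP cells; Benchmarks: DMSO and RFP-L50D-GFP cell wells; Timing: cells overnight before dosing, compound overnight, 37 °C, 5% CO2; Compound: one 20 µM compound dose with 1% DMSO; Read-out: GFP/RFP fluorescence ratio.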
PABP FP inh: PABP poly(A) RNA binding inhibitors, primary screen, biochemical, fluorescence polarization, uHTS | Polyadenylate-binding protein 1 (Homo sapiens), P11940 | inhibition, % at 35 µM | 290,000 compounds, 1% hits | AID 2014, 2009;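 active = 50% or more with normal probe brightness, or confirmed in later tests; inconclusive = above 50% with abnormal brightness, or retests that disagree; inactive = below 50% or failed in later tests; about a fifth of its hits are not listed in these tables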;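 also: calls also rest on retests at 20 µM and on dose response follow-up; controls were probe without protein and protein plus probe with vehicle; some compounds called inactive have numbers as strong as hits; many hits fall short of the cut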
Target sequence (P11940 whole entry, looked up): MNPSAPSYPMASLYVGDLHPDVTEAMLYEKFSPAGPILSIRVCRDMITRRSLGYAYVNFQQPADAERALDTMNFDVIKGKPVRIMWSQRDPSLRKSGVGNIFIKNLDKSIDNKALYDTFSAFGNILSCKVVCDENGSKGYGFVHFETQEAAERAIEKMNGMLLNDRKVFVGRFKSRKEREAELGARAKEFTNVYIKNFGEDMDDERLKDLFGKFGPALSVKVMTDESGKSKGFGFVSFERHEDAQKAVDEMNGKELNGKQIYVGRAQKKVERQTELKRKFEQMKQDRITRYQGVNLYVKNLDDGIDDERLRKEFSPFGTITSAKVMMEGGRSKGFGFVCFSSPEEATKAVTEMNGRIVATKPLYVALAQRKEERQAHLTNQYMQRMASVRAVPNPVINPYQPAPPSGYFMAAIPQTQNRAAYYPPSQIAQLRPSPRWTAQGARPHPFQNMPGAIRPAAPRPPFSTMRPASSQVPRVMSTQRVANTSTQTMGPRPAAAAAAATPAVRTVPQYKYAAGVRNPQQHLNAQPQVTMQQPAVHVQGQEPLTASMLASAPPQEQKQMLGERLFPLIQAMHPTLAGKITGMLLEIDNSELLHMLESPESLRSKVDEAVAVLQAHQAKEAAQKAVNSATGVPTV
UUG fidelity: modulators of yeast start codon fidelity, primary screen, whole organism, S. cerevisiae, single point, plate reader; activity score, % at 18.7 µM; S. cerevisiae UUG-firefly luciferase reporter, luminescence/redox ratio; 350,000 compounds, 0.13% hits; AID 602363, 2012;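 active = replicate mean at a twofold rise or more, about +100% in these data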;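 also: firefly luciferase made from a UUG start codon reports start codon fidelity; reporter light over untreated wells divided by growth signal over untreated wells; some hits fall short of that in this replicate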
CSC inhib: cancer stem cell viability inhibitors, primary screen, luminescence; cancer stem cell-like cells viability; inhibition, % at 7.5 µM; 300,000 compounds, 1.1% hits; AID 2717, 2010;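 active = mean at 75% or more and at least half the replicates too; inconclusive = mean and replicates disagree; tested in HMLE shEcad cells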;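 also: 0% = median of negative and 100% = median of positive control wells; the first replicate is given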
Env fusion inh: inhibitors of HIV-1 Env-driven cell-cell fusion, primary screen, HeLa-JRFL effector, CEM21 target cells, luciferase | inhibition, % at 12.3 µM | 360,000 compounds, 1.1% hits;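 active = mean replicate inhibition score of at least 50 and every replicate individually at or above 50; inconclusive = only one of the two criteria met; inactive = mean below 50 and not all replicates reaching 50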;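 also: 0% = plate neutral controls and 100% = maraviroc near 300 nM; one replicate is shown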
Rce1 inhib: yeast Rce1p protease inhibitors, primary screen, biochemical, fluorescence, cell-free homogeneous. CAAX prenyl protease 2 (Saccharomyces cerevisiae (strain ATCC 204508 / S288c)), Q03530. yeast membranes, quenched prenylated peptide cleavage fluorescence. calls only. 290,000 compounds, 0.27% hits. AID 2563, 2010;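 active = fall in fluorescence gain of 50% or more versus controls, with final raw signal at or below 3038400; inconclusive = same 50% fall but final raw signal above 3038400; inactive = fall in fluorescence gain under 50%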;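 also: plate controls were neutral control wells for no effect and wells lacking membranes for full effect; tested at 10 µM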
eIF4H inh: human eIF4H binding inhibitors, primary screen, translation initiation inhibitor project, biochemical, uHTS, fluorescence polarization; AID 2012, 2009; inhibition, % at 35 µM; Eukaryotic translation initiation factor 4H (Homo sapiens), Q15056; eIF4H fluorescence polarization binding assay; 290,000 compounds, 0.94% hits;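 active = 50% or more with normal probe brightness, or confirmed in later tests; inconclusive = above 50% with abnormal brightness, or retests that disagree; inactive = below 50% or failed in later tests; about a fifth of its hits are not listed in these tables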;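 also: calls also rest on retests at 20 µM and on dose response follow-up; 0% = protein and probe with vehicle and 100% = probe without protein; strong numbers were not always called active; many hits fall short of the cut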
MT1-MMP act inh RFP: further read-out of MT1-MMP act inh, marked with its call; RFP signal change, %; measured here: RFP expression control read;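 0 = vehicle wells; hits needed this value within 50% of zero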
The depositor's hits bear a star.

O=C(COC(=O)c1cc(-c2cccnc2)nc2ccccc12)Nc1ccc(F)cc1F was read as MT1-MMP act inh -14, PABP FP inh -9, UUG fidelity -25, CSC inhib -19, Env fusion inh -4, Rce1 inhib inactive, eIF4H inh 6 and MT1-MMP act inh RFP -2.
Screening CC(C)c1csc(CN2CCCC(CCC(=O)NCc3ccccc3F)C2)n1 (centres undefined) returned MT1-MMP act inh -3, PABP FP inh -6, CSC inhib 6, Env fusion inh -7, Rce1 inhib inactive, eIF4H inh 1 and MT1-MMP act inh RFP 2.
`CCC(C)Nc1nc2c(c(=O)n(C)c(=O)n2C)n1C` (centres undefined) gave MT1-MMP act inh -7, PABP FP inh -10, UUG fidelity -16, CSC inhib -19, Env fusion inh 2, Rce1 inhib inactive, eIF4H inh -13 and MT1-MMP act inh RFP 3.
For CCNC(=S)Nc1ccccc1-c1ccccc1 the results were MT1-MMP act inh 0, PABP FP inh 5, CSC inhib -2, Env fusion inh 5, Rce1 inhib inactive, eIF4H inh -2 and MT1-MMP act inh RFP 7.
Screening COc1ccc(NC(=O)C/C(C)=N/NC(=O)c2cccs2)c([N+](=O)[O-])c1 returned MT1-MMP act inh 6, PABP FP inh 14, UUG fidelity -14, CSC inhib -3, Env fusion inh -9, eIF4H inh 39 and MT1-MMP act inh RFP 2.
For Cn1ccnc1C(O)(c1ccccc1)c1ccccc1 the results were MT1-MMP act inh 0, PABP FP inh 6, UUG fidelity -17, CSC inhib -9, Env fusion inh 11, Rce1 inhib inactive, eIF4H inh -4 and MT1-MMP act inh RFP 2.
For c1ccc(C[C@H]2CN=C(Nc3ccccc3)N2CCCC2CCCC2)cc1 the results were MT1-MMP act inh 4, PABP FP inh 5, UUG fidelity -17, CSC inhib 13, Rce1 inhib inactive, eIF4H inh -1 and MT1-MMP act inh RFP 1.
Screening O=C(COC(=O)Cc1n[nH]c(=O)c2ccccc12)Nc1c(Br)cc([N+](=O)[O-])cc1Br returned MT1-MMP act inh -2, UUG fidelity 5, Env fusion inh 2 and MT1-MMP act inh RFP 0.
Cc1ccc(OCCn2c(=S)[nH]c3c(N)ncnc32)cc1 was read as MT1-MMP act inh 3, PABP FP inh 7, UUG fidelity -29, CSC inhib -12, Env fusion inh -24, Rce1 inhib inactive, eIF4H inh -11 and MT1-MMP act inh RFP -2.
Screening CC(C(=O)Nc1ccccc1Oc1ccccc1)c1ccccc1 (centres undefined) returned MT1-MMP act inh -1, PABP FP inh 1, CSC inhib -14, Env fusion inh 34, Rce1 inhib inactive, eIF4H inh -7 and MT1-MMP act inh RFP 1.
Screening O=C(O)c1cccc(N2C(=O)c3cccc4c(Cl)ccc(c34)C2=O)c1 returned MT1-MMP act inh -28, PABP FP inh -10, UUG fidelity 4, CSC inhib 16, Env fusion inh 19, Rce1 inhib inactive, eIF4H inh 8 and MT1-MMP act inh RFP 3.
For CCOc1ccc(CNC(=O)c2nnc(CS(=O)(=O)c3ccccc3)o2)cc1OC the results were MT1-MMP act inh 0, PABP FP inh 1, UUG fidelity -15, CSC inhib -6, Env fusion inh 6, Rce1 inhib inactive, eIF4H inh 1 and MT1-MMP act inh RFP 1.
CC(C)c1c(O)cc(-c2ccncc2)n(-c2ccc(Cl)cc2)c1=O was read as MT1-MMP act inh -5, PABP FP inh 8, CSC inhib -9, Env fusion inh inconclusive, Rce1 inhib inactive, eIF4H inh -3 and MT1-MMP act inh RFP 3.
For Nc1nonc1C(=O)NCCNc1ccc([N+](=O)[O-])cc1 the results were MT1-MMP act inh 2, PABP FP inh -9, UUG fidelity -10, CSC inhib -7, Env fusion inh 0, Rce1 inhib inactive, eIF4H inh 2 and MT1-MMP act inh RFP -4.
Screening Cc1cc(C)nc(Nc2n[nH]c(COc3ccc4ccccc4c3)n2)n1 returned MT1-MMP act inh 8, PABP FP inh -7, UUG fidelity -14, CSC inhib -13, Env fusion inh -1, Rce1 inhib inactive, eIF4H inh -8 and MT1-MMP act inh RFP 6.

2 records picked at random from the list so far:
Screening COc1ccc(NC(=O)C/C(C)=N/NC(=O)c2cccs2)c([N+](=O)[O-])c1 returned MT1-MMP act inh 6, PABP FP inh 14, UUG fidelity -14, CSC inhib -3, Env fusion inh -9, eIF4H inh 39 and MT1-MMP act inh RFP 2.
For Nc1nonc1C(=O)NCCNc1ccc([N+](=O)[O-])cc1 the results were MT1-MMP act inh 2, PABP FP inh -9, UUG fidelity -10, CSC inhib -7, Env fusion inh 0, Rce1 inhib inactive, eIF4H inh 2 and MT1-MMP act inh RFP -4.

(listing goes on)
For COc1cccc(-c2nnc(NC(=O)c3cccc(F)c3)o2)c1 the results were MT1-MMP act inh 3, PABP FP inh 6, UUG fidelity -10, CSC inhib 34, Env fusion inh 19, Rce1 inhib inactive, eIF4H inh 3 and MT1-MMP act inh RFP -2.
`CCO[C@@H]1OC(C(=O)N2CCN(Cc3ccc4c(c3)OCO4)CC2)=C[C@H](c2ccc(Br)cc2)[C@H]1CCCO` gave MT1-MMP act inh -4, PABP FP inh 1, UUG fidelity -2, CSC inhib 14, Env fusion inh 2, Rce1 inhib inactive, eIF4H inh 6 and MT1-MMP act inh RFP -4.
Screening C[C@@H]1C=C(C(=O)NCc2nc3ccccc3[nH]2)O[C@H](OCCCCO)C1 returned MT1-MMP act inh -1, UUG fidelity -14, CSC inhib 7, Env fusion inh -11, Rce1 inhib inactive and MT1-MMP act inh RFP 5.
For CCOc1ccc(Nc2nc(Cc3nnc(SCC(=O)c4ccc(C)cc4)o3)cs2)cc1 the results were MT1-MMP act inh -5, PABP FP inh 0, UUG fidelity -26, CSC inhib -4, Rce1 inhib inactive, eIF4H inh 5 and MT1-MMP act inh RFP -21.
For O=C(CSc1nnnn1C1CCCC1)N1CCOCC1 the results were MT1-MMP act inh -1, PABP FP inh 0, CSC inhib 3, Env fusion inh -20, eIF4H inh -6 and MT1-MMP act inh RFP -1.
O=C(NCc1ccc2c(c1)OCO2)c1ccccn1 was read as MT1-MMP act inh 0, PABP FP inh 4, UUG fidelity -7, CSC inhib 11, Env fusion inh -26, Rce1 inhib inactive, eIF4H inh 6 and MT1-MMP act inh RFP 3.
`O=C(CC12CC3CC(CC(Br)(C3)C1)C2)NC1=NCCS1` gave MT1-MMP act inh 1, PABP FP inh 2, UUG fidelity -13, CSC inhib -2, Env fusion inh -10, Rce1 inhib inactive, eIF4H inh -7 and MT1-MMP act inh RFP 3.
COc1ccc(F)cc1S(=O)(=O)n1nnc2ccccc21 was read as MT1-MMP act inh -4, PABP FP inh -12, CSC inhib 16, Env fusion inh -6, Rce1 inhib inactive, eIF4H inh 2 and MT1-MMP act inh RFP -2.
For CCOc1ccc(OCC)c(NC(=O)C2CCCN(c3nc(C)cc(C)n3)C2)c1 (centres undefined) the results were MT1-MMP act inh 6, PABP FP inh 4, Rce1 inhib inactive, eIF4H inh -5 and MT1-MMP act inh RFP -7.
For Cc1ccc(-c2ccc(S(=O)(=O)Nc3cccnc3)cc2)cc1 the results were MT1-MMP act inh 7, PABP FP inh -5, UUG fidelity -9, CSC inhib 12, Env fusion inh 5, eIF4H inh 0 and MT1-MMP act inh RFP -22.
`CN1CCCN(C(=O)C2CCCCC2)CC1` gave MT1-MMP act inh 2, PABP FP inh 2, CSC inhib -20, Env fusion inh -18, Rce1 inhib inactive, eIF4H inh 7 and MT1-MMP act inh RFP 6.
For CCOc1cccc(NC(=O)C2CC(=O)N(C)C2)c1 (centres undefined) the results were MT1-MMP act inh 2, PABP FP inh -3, UUG fidelity -1, Rce1 inhib inactive, eIF4H inh -4 and MT1-MMP act inh RFP 3.
`Cc1ccc(S(=O)(=O)CCC(=O)OCC(=O)N2CC(=O)Nc3ccccc32)cc1` gave MT1-MMP act inh 4, PABP FP inh 0, UUG fidelity -18, CSC inhib 5, Env fusion inh -15, Rce1 inhib inactive, eIF4H inh -9 and MT1-MMP act inh RFP 2.
`C=CCNc1nc2c(c(=O)[nH]c(=O)n2C)n1Cc1cccc(C)c1` gave MT1-MMP act inh 6, PABP FP inh 2, UUG fidelity -29, Env fusion inh 28, eIF4H inh -2 and MT1-MMP act inh RFP 6.
For Cc1cc2cc(C(=O)N3CCc4c([nH]c5ccccc45)C3c3ccccn3)ccc2o1 (centres undefined) the results were MT1-MMP act inh 1, PABP FP inh -4, UUG fidelity -15, CSC inhib 10, Env fusion inh -12, Rce1 inhib active, eIF4H inh -11 and MT1-MMP act inh RFP 0.
Screening Cc1ccc(C(=O)NNC(=O)C2CSC3(C)CCC(=O)N23)cc1 (centres undefined) returned MT1-MMP act inh 1, CSC inhib 5, Env fusion inh -3, Rce1 inhib inactive and MT1-MMP act inh RFP 0.
CCN1C(=O)CSc2ccc(C(=O)NCc3ccc(OC)cc3)cc21 was read as MT1-MMP act inh 9, PABP FP inh 0, UUG fidelity -12, CSC inhib -3, Env fusion inh 2, Rce1 inhib inactive, eIF4H inh -4 and MT1-MMP act inh RFP -5.
COc1cc(CNCCc2ccccc2F)ccc1OCc1ccc(Cl)nc1 was read as MT1-MMP act inh 5, PABP FP inh -3, CSC inhib -5, Rce1 inhib inactive, eIF4H inh -2 and MT1-MMP act inh RFP 1.
O=C1OCc2cc(NS(=O)(=O)c3cccs3)ccc21 was read as MT1-MMP act inh -1, PABP FP inh -1, UUG fidelity -24, CSC inhib -4, Rce1 inhib inactive, eIF4H inh -3 and MT1-MMP act inh RFP 3.
For CC(=O)NCC(=O)OC(C)C(=O)Nc1ccc(C(C)=O)cc1 (centres undefined) the results were MT1-MMP act inh 0, PABP FP inh -7, UUG fidelity -4, CSC inhib -2, Env fusion inh -41, Rce1 inhib inactive, eIF4H inh -2 and MT1-MMP act inh RFP 2.
Screening CCCn1c2ccccc2c2cnn(CC(=O)NC(C)CC)c(=O)c21 (centres undefined) returned MT1-MMP act inh -3, PABP FP inh 1, UUG fidelity -7, CSC inhib -5, Env fusion inh 10, Rce1 inhib inactive, eIF4H inh -6 and MT1-MMP act inh RFP 0.
For CCOC(=O)CN(C(=O)COc1nc(C)cc(C)c1C#N)c1ccc(Cl)cc1 the results were MT1-MMP act inh -6, PABP FP inh -2, CSC inhib 8, Env fusion inh -16, Rce1 inhib inactive, eIF4H inh 2 and MT1-MMP act inh RFP -10.
COc1cc(C=O)ccc1OCc1cccc(Br)c1 was read as MT1-MMP act inh -1, PABP FP inh 0, CSC inhib 0, Rce1 inhib inactive, eIF4H inh 5 and MT1-MMP act inh RFP 1.
CC1(C)CC(NC(=O)c2cccc([N+](=O)[O-])c2)CC(C)(C)N1 was read as MT1-MMP act inh 8, PABP FP inh -6, UUG fidelity -17, CSC inhib -5, Env fusion inh 15, Rce1 inhib inactive, eIF4H inh -5 and MT1-MMP act inh RFP -2.
O=C(C1CC(=O)N(c2ccc3c(c2)OCCO3)C1)N1CCN(S(=O)(=O)c2ccccc2F)CC1 (centres undefined) was read as MT1-MMP act inh 1, UUG fidelity -10, Env fusion inh 9 and MT1-MMP act inh RFP -4.
`Cc1c(O)ccc2c(CN3CCN(Cc4ccccc4)CC3)cc(=O)oc12` gave MT1-MMP act inh -1, PABP FP inh -4, UUG fidelity -5, CSC inhib 1, Env fusion inh 11, Rce1 inhib inactive, eIF4H inh -14 and MT1-MMP act inh RFP -4.

Only part of the results is shown; count on the stated rates, not on these rows.
